HSV replic up – enhancers of HSV replication in host cells, fold increase, host cell viability; HSV replication augmentation in cells; maximum fold increase; 220,000 compounds, 0.005% hits; AID 1956, 2009;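 active = peak rise of 1.5-fold or more in the series; tested in PC3 cells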;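 note: first round at 10 µM; read as green reporter fluorescence; hits show the peak of a series up to 25 µM; 1 = signal of infected wells without compound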
PKD1 inh – inhibitors of human PKD1 kinase, biochemical, fluorescence polarization | Serine/threonine-protein kinase D1 (Homo sapiens), Q15139 | PKD1 kinase fluorescence polarization assay | inhibition, %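 (about 10 µM by stock and volumes)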 | 200,000 compounds, 0.056% hits | AID 797, 2007;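 active = inhibition of 50% or more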;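 note: controls were vehicle for no effect and a reference inhibitor for full effect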
Target sequence (Q15139 whole entry, looked up): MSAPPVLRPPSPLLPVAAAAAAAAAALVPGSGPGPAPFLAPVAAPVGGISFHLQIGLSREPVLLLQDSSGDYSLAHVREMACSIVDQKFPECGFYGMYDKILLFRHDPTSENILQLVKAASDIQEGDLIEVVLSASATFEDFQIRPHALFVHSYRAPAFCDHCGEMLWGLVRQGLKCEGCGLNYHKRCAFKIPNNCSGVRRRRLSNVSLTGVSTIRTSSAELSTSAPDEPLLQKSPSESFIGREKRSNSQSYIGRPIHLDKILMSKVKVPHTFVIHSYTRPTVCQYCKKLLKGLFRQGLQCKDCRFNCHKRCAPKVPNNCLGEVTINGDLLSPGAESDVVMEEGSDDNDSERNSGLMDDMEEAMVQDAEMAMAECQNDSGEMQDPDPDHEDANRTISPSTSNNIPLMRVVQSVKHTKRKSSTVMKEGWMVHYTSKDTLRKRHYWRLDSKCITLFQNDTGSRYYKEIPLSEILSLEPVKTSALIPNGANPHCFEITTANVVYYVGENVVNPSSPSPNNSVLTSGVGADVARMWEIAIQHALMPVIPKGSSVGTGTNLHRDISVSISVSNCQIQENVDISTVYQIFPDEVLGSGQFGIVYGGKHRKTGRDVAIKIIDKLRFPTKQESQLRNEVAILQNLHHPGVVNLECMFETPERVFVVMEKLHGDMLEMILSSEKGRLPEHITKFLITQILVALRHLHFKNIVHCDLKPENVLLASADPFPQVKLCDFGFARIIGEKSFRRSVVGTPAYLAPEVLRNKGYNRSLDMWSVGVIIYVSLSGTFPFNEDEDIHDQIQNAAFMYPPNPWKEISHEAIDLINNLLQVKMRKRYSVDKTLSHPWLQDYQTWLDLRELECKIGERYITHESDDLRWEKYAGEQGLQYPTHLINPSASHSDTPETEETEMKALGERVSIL
GALR2 ag – GALR2 receptor agonists, primary screen, cell-based | AID 803, 2007 | GALR2-expressing cells, agonist activation read-out | 140,000 compounds, 0.48% hits | activation, %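 (tested at 5 µM)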;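 active = above mean plus 3 SD of all compounds, about 5% in these data, not always enough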;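 note: 0% = vehicle buffer wells and 100% = reference agonist at full effect; tested in CHO reporter cells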
INS promoter inh – inhibitors of insulin promoter-driven GFP, primary screen, imaging, TRM-6 cells (human fetal islet line), eGFP reporter, cell count | reporter expression induced with tamoxifen | inhibition, % at 2 µM | 130,000 compounds, 0.9% hits | AID 1273, 2008;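 active = inhibition above the mean plus 3 SD, with well images judged a real hit on visual review, cut at about 60% in these data, passing the limit was not always enough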
RGS16-Gao HTS – modulators of RGS16 binding to Galphao, primary screen, biochemical, human proteins, multiplexed bead flow cytometry; bead-based flow cytometry RGS16-Galphao binding, fluorescence; actives lie on both sides; binding response (% of control), % at 10 µM; AID 1441, 2008; Regulator of G-protein signaling 16 (Homo sapiens) + Guanine nucleotide-binding protein …; 220,000 compounds, 0.38% hits;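 active = below 25% or above 175%, edge rows of some plates excepted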;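 note: Galphao activated by GDP with aluminum fluoride before binding; 100% = wells without compound and 0% = beads without RGS; some results beyond the cut were filed as inactive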
INS promoter inh cell count – also measured in INS promoter inh; calls as there; normalized cell count, %; measured here: cell count, toxicity; reference of the scale not given here;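 cells exposed to compound for 48 h; stained nuclei by imaging scaled within each plate; lower means fewer cells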
HSV replic up primary fold – second read-out of HSV replic up, no call of its own (marks repeat the call); fold increase; compound at 10 µM; measured here: primary screen fold increase 10 uM; tested in PC3 cells;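 GFP signal in the first replicate; 1 = infected wells without compound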
An asterisk follows results filed as active; i = inactive; . = not tested or not shown.

SMILES | HSV replic up | HSV replic up primary fold | PKD1 inh | GALR2 ag | INS promoter inh | INS promoter inh cell count | RGS16-Gao HTS
c1ccc2nc3ccccc3nc2c1 | i | 1 | -1 | -0.8 | -68 | 103 | 39
Cc1ccc(O)c(C(CC(=O)NCc2ccco2)c2ccccc2)c1 (stereo unspecified) | i | 1.2 | -3 | . | . | . | 108
CCOC(=O)c1[nH]c(C)c(C(=O)Nc2ccc(Cl)cc2)c1C | i | 0.81 | 10 | -1.6 | . | . | 104
O=C(CCCOc1ccc(Cl)cc1Cl)N/N=C/c1ccco1 | i | 0.73 | 8 | . | 79* | 120* | 101
CCN(CC)CCNC(=O)c1ccc(NC(=O)Cc2ccccc2F)cc1 | . | . | -6 | . | -100 | 72 | 101
CCOC(=O)N1CCC(NC(=O)c2cn(-c3ccc(OC)cc3)c(=O)c3ccccc23)CC1 | i | 0.93 | 2 | 0.9 | 9 | 73 | 100
CCOC(=O)C1(C)/C(=N/Nc2ccc(Cl)cc2)C(=O)C(=O)N1c1ccccc1 (stereo unspecified) | i | 0.9 | -9 | -2.1 | 14 | 77 | 110
COc1ccccc1C1CC(c2cccs2)=Nc2ccccc2S1 (stereo unspecified) | i | 1 | 5 | 4.9 | 23 | 48 | 104
NC(=O)C1CC(=O)N(Cc2ccc3c(c2)OCO3)C(=Nc2ccccc2)S1 (stereo unspecified) | i | 0.91 | -13 | -0.5 | 23 | 117 | 98
Cc1cccc(N2CC3=C(C2=O)C(c2ccccc2)NC(=O)N3C)c1 (stereo unspecified) | i | 0.99 | -16 | -1.8 | 0 | 105 | 97
Cc1ccc([N+](=O)[O-])cc1NC(=O)CN1CCC(C)CC1 | . | . | 2 | -1.0 | 21 | 85 | 105
CC1(C)CC(=O)C2=C(C1)OC(N)=C(C#N)C21C(=O)N(CN2CCOCC2)c2ccccc21 (stereo unspecified) | i | 0.91 | -5 | -0.6 | 71 | 103 | 109
CCN(Cc1ccccc1)C(c1ccncc1)c1nnnn1C(C)(C)C (stereo unspecified) | i | 0.84 | -3 | -2.5 | . | . | 103
N/C(=N\OC(=O)CCCN1C(=O)c2ccccc2C1=O)c1ccc(Cl)cc1 | i | 1 | -16 | -2.7 | -81 | 121 | 99
Cc1ccc(C(O)(C(=O)NN(C(=O)c2ccccc2)c2ccccc2)c2ccc(C)cc2)cc1 | i | 1 | 3 | -2.3 | -8 | 86 | 104

Taken from above for reference:
SMILES | HSV replic up | HSV replic up primary fold | PKD1 inh | GALR2 ag | INS promoter inh | INS promoter inh cell count | RGS16-Gao HTS
c1ccc2nc3ccccc3nc2c1 | i | 1 | -1 | -0.8 | -68 | 103 | 39
Cc1ccc(O)c(C(CC(=O)NCc2ccco2)c2ccccc2)c1 (stereo unspecified) | i | 1.2 | -3 | . | . | . | 108
CCOC(=O)c1[nH]c(C)c(C(=O)Nc2ccc(Cl)cc2)c1C | i | 0.81 | 10 | -1.6 | . | . | 104

More records
SMILES | HSV replic up | HSV replic up primary fold | PKD1 inh | GALR2 ag | INS promoter inh | INS promoter inh cell count | RGS16-Gao HTS
CCN1/C(=C/c2ccc3cc(C)ccc3[n+]2CC)Sc2cc(C)c(C)cc21 | . | . | -21 | . | . | . | 91
COc1ccccc1-n1c(SCC(=O)Nc2ccc(Br)cc2)nc(O)cc1=O | i | 1.1 | . | . | . | . | 105
COc1ccc(NC(=O)CSc2nc3ccccc3c(=O)n2CCCN2CCOCC2)c(OC)c1 | i | 0.88 | 5 | . | . | . | 111
O=C(CN1C(=O)S/C(=C\C=C\c2ccccc2)C1=O)Nc1cccc(O)c1 | i | 0.89 | 0 | -1.2 | -11 | 68 | 101
N#CC(C#N)=C1C(=O)N(CCN2CCCCC2)c2ccccc21 | i | 1 | . | . | . | . | 88
Cc1cccn2c(CN[C@@H]3CCCC[C@H]3c3ccccc3)c(C(=O)N3CCOCC3)nc12 | i | 0.88 | 2 | . | . | . | 104
N#Cc1c(N2C(=O)Nc3ccccc3N2O)sc2c1CCCCCC2 | i | 1 | 2 | -1.5 | 13 | 61 | 87
CCOC(=O)C1CCN(C(=O)CSc2c3c(nc4ccccc24)CCC3)CC1 | i | 1 | -8 | . | -20 | 106 | 93
O=C(O)c1ccccc1C(=O)NNc1cccc(Cl)n1 | i | 1.1 | 1 | . | . | . | 101
Cc1cccc(C(=O)N2CCCCCC2)c1[N+](=O)[O-] | i | 0.87 | 2 | . | . | . | 99
CCOC(=O)CSC1=NC(=O)/C(=C/c2ccc(Br)cc2)S1 | i | 0.91 | -5 | . | 36 | 133 | 96
CCC(Oc1ccccc1)C(=O)Nc1cc(C)on1 (stereo unspecified) | i | 0.69 | -8 | -3.0 | . | . | 101
COc1ccc(S(=O)(=O)N(C)c2ccc(C(=O)N3CCCC3)cc2)cc1 | i | 0.96 | -5 | . | -48 | 146 | 95
Cc1ccccc1OCC(=O)N/N=C/c1cn(Cc2ccccc2)c2ccccc12 | i | 0.89 | 3 | 0.0 | -7 | 146 | 107
COc1ccc(CCNc2nc(-c3sc(C)nc3C)cs2)cc1OC | i | 0.97 | 4 | -1.4 | -138 | 129 | 96
Cc1cc(NC(=O)c2ccc(Cl)cc2)n(CCOC(=O)c2ccc(Cl)cc2)n1 | i | 0.96 | -5 | -1.2 | . | . | 100
CCOC(=O)c1cc(-c2ccc(OC)cc2)nc2c1c(C)nn2CCC(N)=S | i | 0.81 | -4 | . | 29 | 110 | 98
Cc1ccc(NC(=O)c2ccc(S(=O)(=O)N3CCCCC3)cc2)cc1 | i | 0.92 | -4 | -2.5 | 16 | 206 | 93
Cc1ccc(C(=O)OCC(=O)N2CCC(Cc3ccccc3)CC2)cc1N | i | 1.1 | -2 | . | . | . | 103
O=C(COC(=O)CNC(=O)c1cccc([N+](=O)[O-])c1)Nc1cccc(S(=O)(=O)N2CCCC2)c1 | i | 0.97 | 2 | -1.7 | 19 | 109 | 96
O=C(CN1C(=O)COc2ccccc21)Nc1ccc(F)cc1 | i | 0.79 | -3 | -2.9 | . | . | 86
COC(=O)c1cccc(NC(=O)/C=C/c2cccc([N+](=O)[O-])c2)c1 | i | 0.94 | -4 | -3.6 | 17 | 114 | 70
CC1CCCC(C)N1C(=O)CSc1nc2ccccc2c(=O)[nH]1 (stereo unspecified) | i | 1 | -3 | . | . | . | 105
CCO/C=C1\C(=O)N(CC)c2ccccc21 | i | 0.96 | 5 | -0.7 | 24 | 127 | 109
Cn1c2c(c(=O)[nH]c1=O)C(NC(=O)c1ccco1)(C(F)(F)F)C(=O)N2 (stereo unspecified) | i | 0.78 | -8 | -0.5 | -22 | 154 | 50
O=S(=O)(N/N=C/c1ccc(F)cc1)c1ccccc1 | i | 1.1 | -4 | . | . | . | 104
O=C(CSc1nnnn1C1CCCCC1)NCCc1ccccc1 | i | 0.88 | 1 | -2.4 | -52 | 142 | 104
CCC(C)[C@H]1CNC(=O)C(=O)N1CCCc1cc(OC)c(OC)c(OC)c1 (stereo partly specified) | i | 0.93 | . | . | . | . | 77
CC(=O)n1nc(-c2ccco2)nc1SCc1ccccc1 | i | 0.95 | 9 | -1.9 | . | . | 100
CCN(CC)S(=O)(=O)c1cccc(-c2nnc(SCC(=O)NCCC3=CCCCC3)n2N)c1 | i | 0.99 | -3 | -1.3 | . | . | 99
CCOC(=O)CSc1nnc(C)c(=O)[nH]1 | i | 1 | 0 | -1.5 | 63 | 99 | 104
Cc1ccc(/C=N/NC(=O)C(NC(=O)c2ccccc2)c2n[nH]c(=O)c3ccccc23)cc1 (stereo unspecified) | i | 0.98 | 5 | -2.2 | 19 | 133 | 102
Cc1cc(Oc2ccccc2)nc(OCC#N)n1 | i | 0.89 | -11 | -5.3 | -9 | 64 | 97
N#Cc1c(N)nc(N)nc1Nc1ccc(Br)cc1 | i | 0.72 | . | . | . | . | 107
CCOC(=O)Nc1sc(NS(=O)(=O)c2ccccc2)nc1C | i | 1 | 1 | -3.9 | 46 | 135 | 103
COc1ccc(C(c2c(O)nc(SC)n(C)c2=O)c2c(O)nc(SC)n(C)c2=O)cc1O | . | . | 3 | -0.9 | . | . | 89
CCCCCn1c(N(C)Cc2ccccc2)nc2c1c(=O)[nH]c(=O)n2C | i | 0.96 | 5 | 0.0 | . | . | 104
Cc1ccc(-c2nc(NC(=O)c3nn(C)cc3[N+](=O)[O-])sc2C)cc1C | . | . | -3 | 7.7 | -137 | 3 | 104
CCCCNc1nc2ccccc2n1CC(=O)N1CCc2ccccc2C1 | i | 0.98 | -5 | -1.4 | -55 | 92 | 92
O=C1c2ccccc2NC(c2ccccn2)N1c1ccc(Cl)cc1 (stereo unspecified) | i | 0.87 | -12 | -4.0 | 3 | 94 | 113
O=C(NCc1ccco1)c1ccc2c(=O)n(CCC3=CCCCC3)c(=O)[nH]c2c1 | i | 0.94 | 3 | 0.9 | . | . | 102
CCOC(=O)Nc1ccc2c(c1)N(C(=O)N1CCN(C)CC1)c1ccccc1CC2 | i | 0.87 | -2 | . | . | . | 264
CC(=O)Nc1cccc(/C(C)=N/Nc2nc3ccccc3s2)c1 | i | 0.9 | -8 | . | . | . | 99
Cc1ccnc(NC(=O)CCC(=O)N(CC(=O)NCCc2ccccc2)Cc2ccco2)c1 | i | 0.88 | -14 | -3.5 | . | . | 92
CC(C)(C)NC(=O)CN(C(=O)CS(=O)CC(=O)Nc1ccc(F)cc1)c1ccc(Cl)cc1 (stereo unspecified) | i | 1.1 | 1 | 0.5 | -3 | 108 | 100

A different layout for some results above:
O=C(NCc1ccco1)c1ccc2c(=O)n(CCC3=CCCCC3)c(=O)[nH]c2c1
  HSV replic up = i
  HSV replic up primary fold = 0.94
  PKD1 inh = 3
  GALR2 ag = 0.9
  INS promoter inh = .
  INS promoter inh cell count = .
  RGS16-Gao HTS = 102
CCOC(=O)Nc1ccc2c(c1)N(C(=O)N1CCN(C)CC1)c1ccccc1CC2
  HSV replic up = i
  HSV replic up primary fold = 0.87
  PKD1 inh = -2
  GALR2 ag = .
  INS promoter inh = .
  INS promoter inh cell count = .
  RGS16-Gao HTS = 264
CC(=O)Nc1cccc(/C(C)=N/Nc2nc3ccccc3s2)c1
  HSV replic up = i
  HSV replic up primary fold = 0.9
  PKD1 inh = -8
  GALR2 ag = .
  INS promoter inh = .
  INS promoter inh cell count = .
  RGS16-Gao HTS = 99
Cc1ccnc(NC(=O)CCC(=O)N(CC(=O)NCCc2ccccc2)Cc2ccco2)c1
  HSV replic up = i
  HSV replic up primary fold = 0.88
  PKD1 inh = -14
  GALR2 ag = -3.5
  INS promoter inh = .
  INS promoter inh cell count = .
  RGS16-Gao HTS = 92

Continuation.
SMILES | HSV replic up | HSV replic up primary fold | PKD1 inh | GALR2 ag | INS promoter inh | INS promoter inh cell count | RGS16-Gao HTS
CS(=O)(=O)Nc1ccc(C(=O)N2CCN(c3ccccc3F)CC2)cc1 | i | 0.97 | 1 | -0.7 | 14 | 85 | 93
Cc1ccc(N=C2NC(=O)/C(=C/c3cccn3C)S2)cc1C | i | 0.62 | . | . | . | . | 100
COc1cccc2sc(NNC(=O)c3nc4ccccc4s3)nc12 | . | . | -9 | -0.6 | 55 | 85 | 87
CSc1nc(-c2ccc(F)cc2)cc(=O)[nH]1 | i | 0.92 | -9 | -1.7 | 21 | 81 | 108
NS(=O)(=O)c1ccc(CCNCc2cc(Br)ccc2OCc2ccccc2F)cc1 | i | 0.95 | 0 | . | . | . | 86
CC(=O)CSc1ncnc2c1cnn2-c1ccccc1 | i | 1 | -2 | . | . | . | 104
CCCCNC(=S)NNC(=O)c1c(C)nc2ccccn12 | i | 0.93 | 0 | . | 14 | 108 | 99
Cc1sc(NC(=O)C2CC(Cl)=CCC2C(=O)O)c(C#N)c1C (stereo unspecified) | i | 0.96 | 2 | . | . | . | 100
CC1CN(c2ccc([N+](=O)[O-])cc2C#N)CC(C)O1 (stereo unspecified) | i | 1 | -2 | . | -19 | 124 | 99
COC(c1ccccc1)c1nnc(CCC(=O)N2CCN(CCOc3ccccc3)CC2)o1 (stereo unspecified) | i | 1.1 | -6 | . | 13 | 184 | 101
COCCn1c(C23CC4CC(CC(C4)C2)C3)n[nH]c1=S | i | 0.87 | -3 | -0.9 | -195 | 63 | 100
O=C(NNc1ccccn1)C(=O)NNS(=O)(=O)c1ccc(F)cc1 | i | 0.9 | -7 | . | 22 | 136 | 120
Cc1noc(C)c1S(=O)(=O)NCCCN1CCN(Cc2ccccc2)CC1 | . | . | 1 | -1.1 | -21 | 98 | 94
O=C(NCCCn1ccnc1)c1cc(C(=O)C2CCCCC2)c[nH]1 | i | 0.88 | -1 | . | . | . | 102
CCCCNC(=O)CNC(=S)N(Cc1ccccc1F)C1CCCCC1 | i | 0.97 | -5 | . | -26 | 133 | 113
O=c1[nH]c(SCc2ccccc2F)nc2ccccc12 | i | 0.88 | -4 | . | . | . | 110

Screening results as filed in PubChem.
